Six1-Eya2 blk = inhibitors of human Six1/Eya2 interaction. Q15475+O00167. AlphaScreen GST-Six1/His-Eya2 binding, biochemical; stronger effect = lower value; control for the full effect not named in the record. activity change, % (test concentration not listed). 360,000 tested, 0.56% active; in the data active = activity change below about -65%; inconclusive = about -30% to -65%; inactive = above about -30%; note: % is set by controls: 0 for no effect and ±100 for the full control effect; compound concentration not given in the record
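Compounds are tested against tagged Six1 and Eya2 proteins bridged by glutathione donor and nickel acceptor beads; after a one-hour incubation at 37 °C without light, AlphaScreen emission is recorded.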
D2 potentiator = human D2 receptor positive allosteric modulation; potentiation, % (test concentration not listed); 360,000 tested, 0.23% active; DiscoveRx D2 beta-arrestin cells, luminescence, 90 min; 100% = 57 uM dopamine signal; AID 624464; active = potentiation of 50% or more; inconclusive = 30% to 50%; inactive = 30% or less;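 note: compound concentration not given in the record; tested on top of an EC20 dose of dopamine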
Target sequence (P14416 whole entry, looked up): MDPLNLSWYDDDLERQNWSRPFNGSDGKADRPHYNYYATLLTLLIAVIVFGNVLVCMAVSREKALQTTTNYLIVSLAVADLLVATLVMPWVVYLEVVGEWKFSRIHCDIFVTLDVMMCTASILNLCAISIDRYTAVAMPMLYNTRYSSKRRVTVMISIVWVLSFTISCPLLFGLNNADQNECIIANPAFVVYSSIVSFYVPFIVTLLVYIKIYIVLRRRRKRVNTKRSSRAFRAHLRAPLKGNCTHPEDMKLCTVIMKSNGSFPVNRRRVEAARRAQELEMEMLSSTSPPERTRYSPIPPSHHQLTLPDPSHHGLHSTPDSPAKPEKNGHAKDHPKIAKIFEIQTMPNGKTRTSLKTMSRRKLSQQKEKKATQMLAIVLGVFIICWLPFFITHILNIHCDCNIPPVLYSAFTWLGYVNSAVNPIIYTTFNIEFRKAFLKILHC
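PathHunter beta-arrestin assay in DiscoveRx D2 cells. Compounds were added with an EC20 of dopamine (50 nM final) for 90 min at 37 deg C. Luminescence was read 1 h after detection reagent, with 57 uM dopamine as the EC100 control.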
Sfp PPTase inh = Sfp phosphopantetheinyl transferase inhibition; 310,000 tested, 3.5% active; Biochemical Sfp PPTase activity, qHTS; Potency, µM, for inactives: max response, negative = inhibition, usual class: inhibitors; Q9F4F7; active = well fitted inhibition curve with a large enough effect; inconclusive = small, poorly fitted or top-dose-only effect, or another doubt; inactive = no such curve, though single readings can be large or run the other way;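 note: the enzyme is Sfp with the accession as filed and its product quenches rhodamine fluorescence; potency is the fitted concentration of half-maximal effect; 0% = enzyme reaction without inhibitor and -100% = no enzyme wells; top concentration of the series not given in the record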
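Fluorescence-quenching assay with 15 nM Sfp, 5 uM rhodamine-CoA and 12.5 uM BHQ-2-labelled ybbR peptide in pH 7.6 Hepes/MgCl2 buffer. Enzyme was pre-incubated with compound for 15 min at room temperature. Rate was taken from the 30-min fluorescence change (525/598 nm).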
D2 agonist = human D2 receptor agonism in beta-arrestin assay | P14416 | DiscoveRx PathHunter D2 beta-arrestin, luminescence, 90 min; 100% = 57 uM dopamine signal | activation, % (concentration not given with the values) | 360,000 tested, 0.084% active | AID 624465; in the data active = activation above about 40%; inconclusive = about 15% to 40%; inactive = below about 15%; note: compound concentration not given in the record; the text of the record calls up to 30% inactive
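DiscoveRx PathHunter D2 beta-arrestin cells (2,100/well) attached overnight, then compound-stimulated 90 min at 37 C in HBSS/10 mM HEPES/0.1% Tween-20 buffer; beta-galactosidase complementation read by luminescence after 1 h at ambient temperature. Dopamine 57 uM final (EC100) as control.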
PINK1 modulator = PINK1 expression modulation; PINK1 immunofluorescence, high-content cytometry, 24 h; Potency, µM (series often up to 76.6 µM), without a hit: at the highest dose activation (PINK1 increase), usual class: activators; 410,000 tested, 0.2% active; active = well fitted activation curve with a large enough effect; inconclusive = small, poorly fitted or top-dose-only effect; inactive = flat fitted curve, though single readings scatter; cell line not stated here;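 note: potency is the fitted concentration of half-maximal effect; % of control where 0% means no effect; nearly all actives have a fitted effect of over 65% in size; a mitochondrial uncoupler was the plate control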
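Stable cell line treated 24 h with compounds at 5 concentrations (CCCP controls), then fixed and immunostained for PINK1 plus nuclear and cell stains; PINK1 immunofluorescence quantified by laser-scanning microplate cytometry.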
TRPV1 potentiator = potentiators of human vanilloid receptor 1 (TRPV1). Q8NER1. AID 540277. potentiation, % at 8.33 µM. 320,000 tested, 0.02% active. TRPV1-expressing cells, Fluo-8 calcium influx, capsaicin EC20 potentiation; host cell line not named in the record; control for the full effect not named in the record; active means potentiation above 80%; inconclusive means 30% to 80%; inactive means below 30%; note: 0% is about no effect
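Fluo-8 calcium influx in TRPV1-expressing cells, kinetic read (ex 480/em 520 nm). Compound added and read 3 min for agonist activity, followed by capsaicin at EC20 final and 2 min further read for enhancement.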
CtBP-E1A inh = blocks the CtBP interaction with E1A. activity change, % (concentration not given with the values). 340,000 tested, 0.49% active. AlphaScreen GST-E1A/His-CtBP binding, 1536-well; stronger effect = lower value; control for the full effect not named in the record; in the data active means activity change below about -65%; inconclusive means about -30% to -65%; inactive means above about -30%; note: % is set by controls: 0 for no effect and ±100 for the full control effect
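GST-E1A and His-tagged CtBP (125 nM each as 5X stock) were preincubated with pin-transferred compound for 2 h at 37 °C in the dark, then glutathione donor and nickel acceptor beads were added for 1 h before AlphaScreen reading.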
* marks the source's active call; other numbers are inactive results; ? = inconclusive; . = no result given; & = joins results of further samples; [ ] = remark or other dose. Not a hit list (roughly 3.7% active in at least one column).

SMILES	Six1-Eya2 blk	D2 potentiator	Sfp PPTase inh	D2 agonist	PINK1 modulator	TRPV1 potentiator	CtBP-E1A inh
COCC(=O)N(Cc1cc2cc(C)ccc2[nH]c1=O)c1ccc(C)c(C)c1	-7.2	-2.3	-2.3%	10.1	-0.3%	-17.7	1.2
Cc1cc(S(=O)(=O)N2CCN(c3ccccn3)CC2)c(C)cc1Cl	2.2	0.0	-4.5%	-5.4	6.0%	1.2	-0.7
Cc1cc(C)cc(C(=O)NCC(=O)N2CCN(c3cccc(Cl)c3)CC2)c1	-12.8	-6.7	0.1%	0.0	-2.4%	6.3	2.1
Cc1cc(C)nc(-n2nc(C)cc2NC(=O)c2ccc(F)cc2F)n1	9.4	-3.2	-5.7%	-2.3	4.9%	-34.9	0.0
OC(CCCCN1CCCCC1)c1ccccc1 (stereo not given)	-7.3	-14.9	11.0%	-3.7	?	-1.8	-22.2
O=C(c1ccc(S(=O)(=O)N2CCOCC2)cc1)N1CCOCC1	3.3	-2.3	7.6%	-0.8	1.6%	-6.8	-7.0
O=C(C1CCCN1S(=O)(=O)c1cccc2cccnc12)N1CCc2ccccc2C1 (stereo not given)	-5.9	-10.1	1.1%	-5.6	0.9%	4.1	-1.0
Cc1csc(Sc2ccc(S(=O)(=O)N3CCCC3)cn2)n1	3.6	-5.3	12.1%	-0.4	2.8%	1.5	.
CC(=O)c1c(OC(=O)c2cccc(Cl)c2)c2ccccc2n1C	-11.3	7.4	-9.8%	0.1	6.5%	.	6.0
O=c1cc(-c2ccc([N+](=O)[O-])cc2)c2ccc(O)cc2o1	-0.2	0.6	14.1%	-5.6	1.1%	24.7	-6.5
COC(=O)c1ccc(CS(=O)(=O)c2ccc(C)cc2)o1	5.5	-12.1	20.3%	0.4	-0.7%	5.6	-4.3
CCOc1cc(S(=O)(=O)N(Cc2ccccc2)Cc2ccccc2)c(OCC)cc1-n1cnnn1	-2.6	1.7	-1.1%	2.3	5.6%[38.3 µM]	-10.1	-1.1
OC(COc1ccc(CN2CCSCC2)cc1)CN1CCCCC1 (stereo not given)	-0.9	-8.4	6.5%	2.4	-0.2%	0.5	.
Cc1ccc(C(=O)Nc2ccc3c(c2)C(=O)N(C)C3=O)c(C)c1	-4.9	-1.6	9.2%	0.2	6.2%	-8.2	-1.0
COC(=O)CC1Oc2ccc(C)cc2NC1=O (stereo not given)	5.3	-0.8	-4.0%	-1.3	0.3%	-1.7	7.7
CCOC(=O)C1C(=O)NC(SCC(=O)OC)=C(C#N)C1c1ccccc1OCC (stereo not given)	2.0	-8.6	-7.8%	-2.9	4.1%[38.3 µM]	20.7	4.1
Cc1ccc(C(=O)Nc2ccccc2N2CCOCC2)cc1S(=O)(=O)N1CCOCC1	0.2	0.4	.	0.6	-0.9%	-8.1	-6.3
Cc1ccc(C(=O)NNC(=O)C2CCCN(c3ncccn3)C2)cc1 (stereo not given)	-1.3	-0.8	7.5%	-4.2	-2.7%[38.3 µM]	-9.2	9.1
COc1ccc(-c2c(C)cc3oc(=O)cc(-c4ccccc4)c3c2C)cc1OC	-9.9	.	?	3.6	-0.2%	.	-5.8
CC(C)c1ccccc1NC(=O)COC(=O)Cc1ccsc1	2.0	-16.7	-1.6%	-1.5	2.7%	-16.7	2.0
O=C(O)CSCc1cn2cc(Cl)ccc2n1	3.3	6.1	-10.4%	0.6	3.7%	-3.7	-0.7
Cc1ccc(-c2cc(C(=O)OCC(=O)Nc3ncc(C(F)(F)F)cc3Cl)c3ccccc3n2)cc1	7.8	7.9	-16.6%	1.6	?	0.6	-7.6
CCOc1ccccc1NC(=O)CSc1nnc(Cn2c(=O)sc3ccccc32)n1C	4.6	-5.2	11.0%	3.0	-0.4%	9.3	2.9
O=C(Cc1ccccc1)c1ccc2c(c1)OCCO2	7.4	-5.7	22.2%	-1.8	-1.0%	4.8	4.8
Oc1cc2ccccc2cc1-c1n[nH]c(=S)n1Cc1ccco1	-3.7	1.9	22.4µM*	7.4	-0.3%	2.0	1.7
C/C(Cc1ccccc1)=N\NC(=O)c1cc(C(C)(C)C)[nH]n1	0.9	-7.5	10.2%	-3.2	1.9%	-14.4	18.1
S=C(NC1CCCCC1)N1CCc2[nH]c3ccccc3c2C1	7.4	-5.9	10.3%	-0.2	-0.3%	27.9	2.1
COc1ccccc1N1CCN(C(=O)c2ccc3c(c2)CCN3S(=O)(=O)c2ccccc2)CC1	-8.7	-4.0	-7.3%	0.5	-0.1%&1.0%	-1.6	-9.3
CCOC(=O)c1[nH]c2ccccc2c1NC(=O)c1ccc(S(=O)(=O)N2CCCCC2)cc1	5.9	-0.5	19.0%	-9.2	5.2%	-6.9	-0.2
Cn1nccc1C(=O)Nc1cc(Cl)ccc1Cl	11.5	0.2	.	-7.2	0.8%	.	.
COc1cccc(N2CCN(S(=O)(=O)c3ccc4nc(-c5ccccc5)[nH]c4c3)CC2)c1	?	?	12.6%	5.6	16.5%	8.8	?
CC(C)Oc1ccccc1C(=O)NC(CO)C(=O)O (stereo not given)	-0.1	-7.0	13.8%	-3.3	-1.0%	1.2	-2.9
CCOC(=O)[C@H]1[C@H]2COc3ccccc3[C@@H]2N2C(=O)c3cc(OC)ccc3NC(=O)[C@@]12C	4.1	-4.7	.	-0.3	1.2%	3.2	-21.9
O=C(CN1CCN(Cc2ccccc2)CC1)Nc1cccc(Cl)c1Cl	8.7	-11.4	.	-2.3	2.5%	.	-6.8
Cn1c(Cn2nnc3ccccc32)nnc1SCC(=O)N1CCc2ccccc21	4.7	-15.1	7.9%	-0.6	1.6%[38.3 µM]	-6.4	10.6
O=C(NCc1cccc(Cl)c1)C1CCC(=O)N(CCN2CCOCC2)C1 (stereo not given)	-1.2	-8.1	4.1%	-4.2	-0.6%	?	-3.2

Full records, looked up by structure.
Shown for `CCOC(=O)c1[nH]c2ccccc2c1NC(=O)c1ccc(S(=O)(=O)N2CCCCC2)cc1` → Six1-Eya2 blk: 5.9; D2 potentiator: -0.5; Sfp PPTase inh: 19.0%; D2 agonist: -9.2; PINK1 modulator: 5.2%; TRPV1 potentiator: -6.9; CtBP-E1A inh: -0.2
Shown for `C/C(Cc1ccccc1)=N\NC(=O)c1cc(C(C)(C)C)[nH]n1` → Six1-Eya2 blk: 0.9; D2 potentiator: -7.5; Sfp PPTase inh: 10.2%; D2 agonist: -3.2; PINK1 modulator: 1.9%; TRPV1 potentiator: -14.4; CtBP-E1A inh: 18.1

Next part.
SMILES	Six1-Eya2 blk	D2 potentiator	Sfp PPTase inh	D2 agonist	PINK1 modulator	TRPV1 potentiator	CtBP-E1A inh
COc1ccc(C)cc1N(CC(=O)N1CCOCC1)S(C)(=O)=O	2.6	-25.2	11.2%	-2.3	-0.1%	-6.2	0.4
Oc1ccc2oc3c(c2c1C=NCc1ccncc1)CCCC3	0.0	-3.9	50.1µM*	11.5	1.5%	0.1	-7.5
CCOc1ccccc1NC(=O)CSc1nc2cc(O)ccc2c(=O)n1-c1ccc(OC)c(OC)c1	-1.0	17.6	-13.0%	11.5	-0.6%	-6.7	3.4
O=C(NCC1CCCO1)c1nn2c(C(F)(F)F)cc(-c3ccc(Br)o3)nc2c1Br (stereo not given)	-25.8	-5.6	50.1µM*	-4.1	15.7%	6.5	-16.2
CCOC(=O)c1c(C)[nH]c(C)c1C(=O)CSc1nnc(-c2ccncc2)n1C	1.9	3.2	-3.3%	-0.8	-1.2%	10.4	2.0
COc1ccc(C(C)=O)cc1COC(=O)c1cccc(N(C)C)c1	-16.3	-1.7	2.4%	-0.8	0.6%	5.5	-9.7
O=C(CSc1nnc(-c2ccco2)n1Cc1ccccc1)c1ccc(F)cc1	-3.6	-4.9	?	-3.6	2.0%	-14.1	7.9
Cc1cccc(C(=O)NNC(=O)c2ccccc2)c1	7.1	-22.1	0.6%	-3.5	2.9%	2.7	10.6
Cc1cc(C)nc(SCC(=O)Nc2ccccc2[N+](=O)[O-])n1	-0.8	-3.4	18.0%	1.5	-5.6%[38.3 µM]	-4.4	-8.8
CCN(CC)S(=O)(=O)c1cc(NS(=O)(=O)c2cc(Cl)ccc2Cl)ccc1C	22.3	7.8	10.5%	1.9	-2.8%	16.5	-0.9
Cc1ccc(S(=O)(=O)NN/C(=N/S(=O)(=O)c2ccccc2)c2ccccc2)cc1	6.8	-6.1	8.7%	-1.3	-0.8%	9.5	0.0
O=C(O)c1cccc(-n2cnnn2)c1	6.4	-4.1	11.8%	-1.7	1.0%	-3.5	1.2
O=C(Nc1cccc2ncccc12)C(c1ccccc1)c1ccccc1	-6.2	-8.9	26.1%	0.5	0.2%	22.6	.
O=C(N/N=C/c1ccc(Cl)cc1Cl)c1n[nH]c2c1CCCC2	-1.5	-9.5	4.6%	-4.8	3.2%	-11.4	1.9
CCN1CCN(C(=O)N(Cc2ccc(Cl)cc2)S(=O)(=O)c2ccc(C)cc2)CC1	4.0	20.0	.	-2.7	1.4%	-4.8	-19.3
COc1cccc(NC(=O)C(C)NS(=O)(=O)c2ccc(Br)cc2)c1 (stereo not given)	6.3	-0.4	8.9%	-2.4	1.5%	29.2	2.5
CC1(C)CC2CC(C)(CN2C(=O)COC(=O)c2cc(Cl)cc(Cl)c2N)C1 (stereo not given)	8.4	2.6	-12.8%	-2.3	6.4%[38.3 µM]	-9.3	4.3
Nc1ccccc1-c1ccn[nH]1	4.2	3.8	.	2.4	0.8%	.	2.8
CN1CCN(c2nc3c(c(=O)n(C)c(=O)n3C)n2Cc2ccccc2Cl)CC1	-0.5	-2.6	4.2%	-3.9	1.1%	-5.1	0.3
CCOc1nc(SCCOc2ccc(C)cc2)nc(N(C)C)n1	24.1	-8.2	?	-1.1	0.0%	3.1	27.4

Printed as active in Sfp PPTase inh, of those listed so far:
| Molecule | Six1-Eya2 blk | D2 potentiator | Sfp PPTase inh | D2 agonist | PINK1 modulator | CtBP-E1A inh |
| --- | --- | --- | --- | --- | --- | --- |
| Oc1cc2ccccc2cc1-c1n[nH]c(=S)n1Cc1ccco1 | -3.7 | 1.9 | 22.4µM* | 7.4 | -0.3% | 1.7 |
| Oc1ccc2oc3c(c2c1C=NCc1ccncc1)CCCC3 | 0.0 | -3.9 | 50.1µM* | 11.5 | 1.5% | -7.5 |
| O=C(NCC1CCCO1)c1nn2c(C(F)(F)F)cc(-c3ccc(Br)o3)nc2c1Br (stereo not given) | -25.8 | -5.6 | 50.1µM* | -4.1 | 15.7% | -16.2 |

Bioassay records from PubChem.
